Platelet DG rel = inhibitors of platelet dense granule secretion, primary screen, cell-based, MLPCN, human platelets. human platelet-rich plasma, SFLLRN dense granule ATP release, luminescence. inhibition, %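 (compounds screened at 7.5 µM in platelet-rich plasma)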. 300,000 tested, 0.22% active;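 active = mean replicate score, as percent of positive control, at or above 50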
PolyA inh = polyadenylation inhibitors in yeast reporter cells, primary screen, luminescence, S. cerevisiae; calls only at 12 µM; 300,000 tested, 0.02% active; S. cerevisiae SKY197-pL101 polyadenylation reporter, beta-gal luminescence; efflux-impaired pdr1/pdr3 knockout yeast; score 100 = 6 SD above DMSO; AID 1875, 2009;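 active = lowest replicate activity score at least 50, where 100 means six control SD above control mean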;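 also: yeast exposed to compound for 9 h at 30 °C; higher score means more reporter readthrough which indicates perturbed polyadenylation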
TRPC4 PAM = positive allosteric modulators of TRPC4, primary screen, cell-based, mouse TRPC4beta, HEK293 mu-opioid, Fluo-4 calcium; Short transient receptor potential channel 4 (Mus musculus), Q9QUQ5; DAMGO EC20, Fluo-4 Ca2+ flux; stronger effect = higher value; B-score at 10 µM; 310,000 tested, 0.42% active;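 active = B-score of calcium response area above 5 SD of library B-scores, with initial fluorescence ratio within 5 SD of library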;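 also: B-score of integrated fluorescence ratio over time as area under calcium response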
TRPC4 block = inhibitors of mouse TRPC4 channel, primary screen, Fluo4 calcium, HEK293 TRPC4beta/mu-opioid cells. Short transient receptor potential channel 4 (Mus musculus), Q9QUQ5. DAMGO-evoked Fluo4 calcium flux; stronger effect = lower value. B-score at 10 µM. 300,000 tested, 0.39% active;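 active = B-score over 3 SD under the library average, no early fluorescence shift, positive overall ratio signal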
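Test system – stable TRPC4beta/mu-opioid receptor HEK293 cells · Probe or stimulus – DAMGO, a submaximal dose followed by a maximal one · Dosing – one concentration per compound · Signal – Fluo4 calcium fluorescence by kinetic imaging, 5 s 1 Hz baseline · Evaluation – per-well B score of integrated baseline-normalized Fluo4 ratio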
hERG rescue = hERG rescue from dofetilide block, primary screen, cell-based, CHO-hERG, FluxOR thallium flux, dofetilide IC70 | Voltage-gated inwardly rectifying potassium channel KCNH2 (Homo sapiens), Q12809 | dofetilide IC70 present | activation (rescue from dofetilide block), less the hit threshold, % at 10 µM | 310,000 tested, 0.51% active;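 active = activation above the mean of controls blocked by dofetilide plus 5 SD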;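 also: thallium influx through hERG after potassium depolarization seen as dye fluorescence rise; in these data hits start at about 4.7%; inactives centre near -7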
KCNQ1 act = potentiators or activators of KCNQ1 channel, primary screen, cell-based, thallium flux, high-throughput | CHO-K1 KCNQ1, thallium flux FluxOR fluorescence; stronger effect = higher value | AID 2648, 2010 | Potassium voltage-gated channel subfamily KQT member 1 (Homo sapiens), P51787 | 310,000 tested, 0.35% active | B-score at 10 µM;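 active = fluorescence ratio B-score, a plate-corrected score, at least three library SD, with initial intensity B-score within 5 SD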
Target sequence (P51787 whole entry, looked up): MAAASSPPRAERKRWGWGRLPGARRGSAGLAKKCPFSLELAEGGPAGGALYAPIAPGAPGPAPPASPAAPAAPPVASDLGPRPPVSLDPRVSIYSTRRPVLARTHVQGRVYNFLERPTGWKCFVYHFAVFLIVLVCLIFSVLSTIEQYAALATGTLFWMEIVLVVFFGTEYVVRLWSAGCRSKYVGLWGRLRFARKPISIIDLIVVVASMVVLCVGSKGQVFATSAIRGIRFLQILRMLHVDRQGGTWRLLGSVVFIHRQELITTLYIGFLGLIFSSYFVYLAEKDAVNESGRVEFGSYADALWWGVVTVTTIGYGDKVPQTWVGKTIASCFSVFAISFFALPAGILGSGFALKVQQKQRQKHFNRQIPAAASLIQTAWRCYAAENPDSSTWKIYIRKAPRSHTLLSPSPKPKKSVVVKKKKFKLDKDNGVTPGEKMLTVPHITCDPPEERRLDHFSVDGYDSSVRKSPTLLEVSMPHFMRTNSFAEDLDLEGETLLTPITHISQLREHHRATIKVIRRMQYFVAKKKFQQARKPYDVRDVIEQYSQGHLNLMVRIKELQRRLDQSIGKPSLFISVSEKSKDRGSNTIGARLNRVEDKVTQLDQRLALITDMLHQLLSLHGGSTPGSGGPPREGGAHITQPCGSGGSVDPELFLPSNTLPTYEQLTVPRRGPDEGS
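Assay system: CHO-K1 cells stably expressing KCNQ1; Medium: assay buffer with matched DMSO; Also added: K+/Tl+ depolarizing stimulus; Dosing: single dose; Timing: dye 90 min, compound 20 min, room temperature; Measured by: kinetic FluxOR thallium fluorescence, 10-s 1-Hz baseline, 110-s post-stimulus read; Read-out: peak-minus-minimum fluorescence over initial fluorescence, negative-control normalized, B-scored.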
KCNK3 block = human KCNK3 channel inhibitors, primary screen, CHO cells, FluxOR thallium flux, B-score; FluxOR fluorescence; stronger effect = lower value; B-score at 10 µM; 340,000 tested, 0.84% active; AID 602410, 2012;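 active = B-score under library mean minus 4 SD, starting fluorescence ratio at most library mean plus 5 SD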;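 also: more negative B-score means stronger inhibition of thallium flux through KCNK3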
TRPC4 agonist = activators of mouse TRPC4 channel, primary screen, Fluo4 calcium, HEK293 TRPC4beta/mu-opioid cells; Short transient receptor potential channel 4 (Mus musculus), Q9QUQ5; Fluo4 calcium fluorescence; stronger effect = higher value; B-score at 10 µM; 310,000 tested, 0.49% active; AID 2237, 2010;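 active = B-score above 5 SD of library B-scores, and initial fluorescence ratio not above library mean plus 5 SD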;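 also: positive B-score marks a calcium rise read as TRPC4 activation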
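Assay system – TRPC4beta and mu-opioid receptor HEK293 stable cells · Measured by – Fluo4 fluorescence, kinetic · Schedule – dye loading 45 min room temperature, 110 s kinetic read · Read-out – B-scored integrated calcium fluorescence ratio · Controls – buffer and maximal DAMGO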
KCNK9 inh = KCNK9 potassium channel inhibitors, primary screen, HEK293 cells, thallium flux. FluxOR thallium flux fluorescence; stronger effect = lower value. 310,000 tested, 1.2% active. Potassium channel subfamily K member 9 (Homo sapiens), Q9NPC2. AID 488922, 2010. B-score at 10 µM;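 active = ratio B-score over 3 SD below the library mean, with starting fluorescence within 5 SD of its mean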;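 also: negative B-score means less thallium flux so channel inhibition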
Target sequence (Q9NPC2 whole entry, looked up): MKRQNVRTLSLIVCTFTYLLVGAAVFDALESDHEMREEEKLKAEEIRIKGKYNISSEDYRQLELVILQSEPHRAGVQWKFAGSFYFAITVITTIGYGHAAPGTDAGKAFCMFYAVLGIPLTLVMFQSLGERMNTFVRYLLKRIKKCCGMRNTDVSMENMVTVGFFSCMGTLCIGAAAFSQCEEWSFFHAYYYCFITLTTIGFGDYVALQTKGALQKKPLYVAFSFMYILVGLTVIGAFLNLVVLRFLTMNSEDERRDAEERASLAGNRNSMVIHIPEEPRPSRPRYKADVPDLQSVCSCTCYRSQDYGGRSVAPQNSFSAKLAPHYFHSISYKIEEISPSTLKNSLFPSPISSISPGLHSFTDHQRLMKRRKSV
KCNQ1 block = inhibitors of human KCNQ1 channel, primary screen, cell-based, thallium flux, high-throughput. Potassium voltage-gated channel subfamily KQT member 1 (Homo sapiens), P51787. 310,000 tested, 1.3% active. B-score at 10 µM. CHO-K1 KCNQ1, FluxOR thallium flux fluorescence; stronger effect = higher value. AID 2642, 2010;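 active = compounds whose thallium flux B-score, printed positive for inhibition, exceeds three library SD while starting fluorescence stays within three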;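 also: channel opened by potassium depolarization with thallium stimulus after 20 min compound exposure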
* = called active by the depositor; i = inactive; x = not tested or not shown. These rows are one share of the data; count on the stated rates, not on these rows.

Second line of a record: Platelet DG rel, PolyA inh, TRPC4 PAM, TRPC4 block, hERG rescue, KCNQ1 act, KCNK3 block, TRPC4 agonist, KCNK9 inh, KCNQ1 block
COc1ccc(C(=O)CCC(=O)O)cc1
→ 3.9, i, i, i, -2.5, i, i, i, i, i
N#C/C(=C\c1ccc(O)c([N+](=O)[O-])c1)C(=O)NCc1ccccc1
→ 14.3, i, i, i, -11.7, i, i, i, i, i
Cc1cc(C(=O)Nc2sccc2C#N)c2ccccc2n1
→ 4.0, i, i, i, -7.6, i, i, i, i, i
Cc1c(/C=N/O)c2ccccn2c1C(=O)c1ccc(F)cc1
→ -5.5, x, i, i, -4.1, i, i, i, i, i
N#Cc1c2ccc(OCC(N)=O)cc2n2ccccc12
→ -0.3, i, i, i, -14.6, i, i, i, i, i
CC(CNc1nc2ccccc2n2cnnc12)c1ccccc1 (stereo not drawn)
→ 4.4, i, i, i, -11.7, i, i, i, i, i
O=C(COC(=O)/C=C/c1ccccc1Cl)NCc1ccco1
→ -2.0, i, i, i, -12.1, i, i, i, i, i
COc1ccc(CNC(=O)C2CCCN2S(=O)(=O)c2ccc(C)cc2)cc1 (stereo not drawn)
→ 5.5, i, i, i, -11.6, i, i, i, i, i
CC(=O)c1c(C)[nH]c(-c2ccccc2)c1C
→ 19.1, i, i, i, -4.6, i, i, i, i, i
COC(=O)C1C(O)=C(C=NCC(C)N=CC2=C(O)C(C(=O)OC)C(C)(C)CC2=O)C(=O)CC1(C)C (stereo not drawn)
→ 1.4, i, i, i, -3.4, i, i, i, i, i
CCC(=O)Nc1nc2ccc3nc(C)sc3c2s1
→ -4.5, i, i, i, -7.8, i, i, i, i, i
O=[N+]([O-])c1ccc(COc2ncnc3ccccc23)cc1
→ -16.2, i, i, i, -14.2, i, i, i, i, i
COc1ccc(-c2nnc(NC(=O)c3cc(C)on3)s2)cc1
→ 1.4, i, i, i, -6.3, i, i, i, i, i
CS(=O)(=O)c1ccc2nc(NC(=O)c3cccs3)sc2c1
→ x, x, x, x, x, x, i, x, x, x
CCNS(=O)(=O)c1ccc(NC(=O)c2cc(C(F)(F)F)nn2C)cc1
→ -0.6, i, i, i, -0.9, i, i, i, i, i
O=C(CSc1cn[nH]n1)Nc1ccccc1F
→ 6.2, i, i, i, -6.0, i, i, i, i, i
O=C(O)c1ccccc1-c1ccc(/C=c2\sc3nc4cc(Br)cnc4n3c2=O)o1
→ 4.6, i, i, i, -19.5, i, i, i, i, i
CC(C)n1cnc2c(Nc3cccc(F)c3)nc(NCCO)nc21
→ 1.0, i, i, i, -2.3, i, i, i, i, i
COc1ccc(C2NC(=O)NC(C)=C2C(=O)Nc2cc(C)ccc2C)cc1OC (stereo not drawn)
→ 10.5, i, i, i, -3.6, i, i, i, i, i
Cc1[nH]c(=O)[nH]c(=O)c1S(=O)(=O)Nc1cccc(C(F)(F)F)c1
→ 1.1, i, i, i, -4.9, i, i, i, i, i
O=C(COC(=O)c1ccccc1Cl)NCc1ccco1
→ x, x, x, x, x, x, i, x, x, x
CCN(CC)c1nc(C(N)=O)cc(-c2ccccc2)n1
→ 5.9, i, i, i, -7.6, i, i, i, -8.53*, i
CCOC(=O)N1CCC(NC(=O)C2CCCN(c3nc4ccccc4o3)C2)CC1 (stereo not drawn)
→ 1.9, i, i, i, -8.6, i, i, i, i, i
CCOc1ccc(N/C(SCc2cccc([N+](=O)[O-])c2)=C(/C#N)C(N)=O)cc1
→ 4.6, i, i, i, -9.5, i, i, i, i, i
CC(=O)Nc1cccc(NC(=O)/C=C/c2ccc(S(=O)(=O)N3CCOCC3)cc2)c1
→ x, x, x, x, x, x, i, x, x, x
N#CCCN(CC(=O)O)S(=O)(=O)c1ccccc1
→ -18.9, i, i, i, -9.0, i, i, i, i, i
CS(=O)(=O)N1CCc2cc(C(=O)OCC(=O)c3ccccc3)ccc21
→ -1.6, i, i, i, -2.0, i, i, i, i, i
O=C1N2CCCc3cccc(c32)C12Nc1ccccc1S2 (stereo not drawn)
→ 3.8, i, i, i, -8.4, i, i, i, i, i
C=CCn1c(COc2ccc(Cl)cc2)nnc1SCC(=O)Nc1ccc(S(N)(=O)=O)cc1
→ -20.0, x, i, i, -2.5, i, i, i, i, i
O=C(NCc1ccco1)c1ccc(Cn2c(=O)c3ccccc3n(Cc3cccc(Cl)c3)c2=O)cc1
→ -4.8, i, i, i, -9.9, i, i, i, i, i
CCOC(=O)C1CCN(C(=O)c2ccc3c(c2)NC(=O)/C(=C\c2ccc(C)cc2)S3)CC1
→ -7.1, i, i, i, -8.3, i, i, i, i, i
Cc1cc(C)c(S(=O)(=O)Nc2cccc(/C=C/C(=O)O)c2)c(C)c1
→ -12.1, i, i, i, -8.0, i, i, i, i, i
Cc1oc(C(=O)Nc2ccc(O)cc2)cc1COc1ccccc1
→ x, x, x, x, x, x, i, x, x, x
Cc1ccc2c(nc3s/c(=C\c4ccc(-c5ccccc5C(=O)O)o4)c(=O)n32)c1C
→ -5.6, i, i, -8*, -25.3, i, i, 189*, i, i
CC(C)c1ccc(NC(=O)CCCC(=O)NCCc2ccccc2)cc1
→ -0.9, i, i, i, -2.4, i, i, i, i, i
O=C(Nc1nc2ccc(Cl)cc2s1)C1CC1
→ 8.3, i, i, i, -7.6, i, i, i, i, i
COc1ccccc1Nc1nc2ccc(C)cc2n2cnnc12
→ 0.5, i, i, i, -8.3, i, i, i, i, i
COc1ccc(S(=O)(=O)N2CCN(c3ccc4nnc(-c5ccc(F)cc5)n4n3)CC2)cc1
→ -16.8, i, i, i, -14.1, i, i, i, i, i
CCCC(=O)N1CCN(C2=NS(=O)(=O)c3ccccc32)CC1
→ 8.3, i, i, i, -10.9, i, i, i, i, i
CC(C)Cc1cc(C(=O)Nc2sc3c(c2C#N)CCCC3)no1
→ 1.1, i, i, i, -5.0, i, i, i, i, i
COc1ccc2nc(NC(=O)C3CCCN(S(=O)(=O)c4c(C)noc4C)C3)sc2c1 (stereo not drawn)
→ 28.6, i, i, i, -10.7, i, i, i, i, i
O=c1cc(CN2CCOCC2)c2c(ccc3ccccc32)o1
→ 0.2, x, i, i, -11.3, i, i, i, i, i
CCOC(=O)/C=C(\C)Sc1cc(=O)oc2ccccc12
→ -6.5, i, i, i, -5.0, i, i, i, i, i
CCCCOC(=O)/C=C/c1ccc(OC(=O)OC)c(OC(=O)OC)c1
→ -0.1, i, i, i, -4.4, i, i, i, i, i
Fc1ccccc1Cn1nnc2c(NCc3ccccn3)ncnc21
→ 1.1, i, i, i, 1.9, i, i, i, i, i
CSc1ccc(S(=O)(=O)Nc2ccc3c(c2)OCCO3)cc1
→ 2.7, i, i, i, -15.3, i, i, i, i, i
CC(=O)Nc1nnc(-c2ccc3c(c2)CCCC3)o1
→ -25.6, i, i, i, -12.9, i, i, i, i, i
CCOC(=O)c1cc(-c2ccccc2)nn1CC1CC(c2cccnc2)=NO1 (stereo not drawn)
→ 0.1, i, i, i, -5.4, i, i, i, i, i
O=C(O)CCC(=O)Nc1nc2ccc([N+](=O)[O-])cc2s1
→ -10.6, i, i, i, -11.4, i, i, i, i, i
O=C1NC(N2CCOCC2)=N/C1=C/c1ccc2c(c1)OCO2
→ 6.0, i, i, i, -0.1, i, i, i, i, i
CC(C)C[C@H](NC(=O)OC(C)(C)C)C(=O)N1CCC(C(=O)O)CC1
→ -0.2, i, i, i, -0.9, i, i, i, i, i
FC(F)(F)c1cccc(CN2CCCCCC2)c1
→ 2.8, i, i, i, -11.0, i, i, i, i, i
Cc1sc2nc(CN3CCCC3)nc(N3CCN(C(=O)c4ccco4)CC3)c2c1C
→ -2.1, i, i, i, -20.0, i, i, i, i, i
CN(C)c1oc(-c2ccccc2)nc1C#N
→ -0.2, i, i, i, -7.3, i, i, i, i, i
Cc1cc2n(n1)C(c1sccc1C)Nc1ccccc1-2 (stereo not drawn)
→ -1.0, x, i, i, -13.3, i, i, i, i, i
CCCc1nc(-c2cc3cc(C)ccc3[nH]c2=O)no1
→ 0.0, i, i, i, -5.3, i, i, i, i, i
CC(=O)Nc1nc2cc(N)ccc2s1
→ x, x, x, x, x, x, i, x, x, x
CCCOc1ccc(C(C)=O)cc1CSc1nc(O)cc(=O)[nH]1
→ -24.1, i, i, i, -4.9, i, i, i, i, i
COc1ccc(C2=NOC(C(=O)NCC(C)C)C2)cc1 (stereo not drawn)
→ -5.2, i, i, i, -6.4, i, i, i, i, i
CN1c2ccccc2Oc2c(c(=O)n(C)c(=O)n2C)C1c1cccc([N+](=O)[O-])c1 (stereo not drawn)
→ 9.2, i, i, i, -8.8, i, i, i, i, i

(more compounds)
Second line of a record: Platelet DG rel, PolyA inh, TRPC4 PAM, TRPC4 block, hERG rescue, KCNQ1 act, KCNK3 block, TRPC4 agonist, KCNK9 inh, KCNQ1 block
CCOCCn1c(=NC(=O)CSCC(=O)N2CCOCC2)sc2cc(OC)ccc21
→ -0.3, i, i, i, -6.2, i, i, i, i, i
CCCCOc1ccccc1-c1cc(C(=O)O)[nH]n1
→ -7.5, i, i, i, -5.5, i, i, i, i, i
Nc1ncnc(Nc2ccc(F)c(Cl)c2)n1
→ 5.1, i, i, i, -5.1, i, i, i, i, i
Cc1ccc(S(=O)(=O)CC(=O)c2cc3cccc(C)c3oc2=O)cc1
→ -5.1, i, i, i, -2.1, i, i, i, i, i
CC(C)CNC(=O)C1CCN(c2ccc(S(=O)(=O)N3CCOCC3)cc2Cl)CC1
→ -1.1, i, i, i, -4.3, i, i, i, i, i
